miR-21 FLuc = raises the signal of a miR-21 reporter. HeLa miR-21 FLuc reporter, luciferase, 48 h. Potency, µM (top dose mostly 38.3 µM), for the others: at the top dose reporter change, positive = more light. 340,000 tested, under 10 active. AID 2288; active = well fitted rising curve with a large enough effect; inconclusive = small, poorly fitted or top-dose-only effect; inactive = no such curve, though single readings can be large or run the other way;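 note: % of control where 0% means no effect; miR-21 action dims this reporter so a rising signal means less miR-21 action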
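Compounds were titrated across several concentrations (up to approximately 40 uM) and incubated 48 hours with HeLa miR-21-FLuc reporter cells (miR-21 target sequence downstream of FLuc, endogenous miR-21). Readout was firefly luciferase luminescence after lytic detection reagent.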
GLA inh pH 4.5 = blocks human alpha-galactosidase A at pH 4.5; activity change, negative = inhibition, % at 105 µM; 230,000 tested, under 10 active; P06280; purified enzyme, 4-MU-alpha-Gal fluorescence, pH 4.5; inconclusive = small, poorly fitted or top-dose-only inhibition, or a rising curve; inactive = flat fitted curve, though single readings scatter; no compound was filed as active;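 note: 0% = full activity with enzyme and -100% = basal without enzyme; dose as in the result columns while the protocol names 77 µM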
Target sequence (P06280 whole entry, looked up): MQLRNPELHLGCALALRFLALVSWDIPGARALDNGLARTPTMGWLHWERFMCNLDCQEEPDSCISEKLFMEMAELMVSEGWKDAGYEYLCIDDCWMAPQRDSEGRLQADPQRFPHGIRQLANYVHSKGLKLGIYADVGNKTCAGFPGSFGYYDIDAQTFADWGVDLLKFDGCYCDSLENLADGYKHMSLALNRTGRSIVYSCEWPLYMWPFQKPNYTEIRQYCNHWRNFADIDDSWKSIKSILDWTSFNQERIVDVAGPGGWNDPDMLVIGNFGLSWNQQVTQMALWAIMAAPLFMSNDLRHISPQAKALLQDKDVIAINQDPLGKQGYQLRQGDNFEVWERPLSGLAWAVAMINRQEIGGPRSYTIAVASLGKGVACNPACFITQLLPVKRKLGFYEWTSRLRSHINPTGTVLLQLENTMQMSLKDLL
Rango-impB inh = Rango-importin beta binding inhibition | Q14974 | Rango CFP/YFP FRET sensor + importin beta, 45 min | Potency, µM (titrated, usually from 92.2 µM), for the others: at the top dose inhibition of complex formation | 340,000 compounds, 0.031% hits; active = rising FRET ratio curve, often small or poorly fitted; inconclusive = mostly compound fluorescence or quenching in the first reads; inactive = flat curves in all reads;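 note: potency is the fitted concentration of half-maximal effect; 0% = DMSO wells and 100% = buffer wells lacking importin beta; nearly all actives have a fitted effect of over 15% in size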
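FRET biosensor (snurportin 1 IBB flanked by EYFP and cerulean), 50 nM, with compound 5 min, then 0.125 microM importin beta in PBS, 1 mM DTT, 0.02% Tween-20, 0.1% BSA. CFP/YFP ratio read after 45 min at room temperature; pre-read flags interference.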
Rango release inh = inhibitors of RanGTP-induced Rango-importin beta complex dissociation. Biochemical FRET Rango-importin beta, RanGTP-induced dissociation. Potency, µM (titrated, usually from 46.1 µM), without a hit: top-dose activity change, negative = inhibition. 340,000 compounds, 0.071% hits. AID 540253; active means falling FRET ratio curve, often poorly fitted, with flat reads before Ran was added; inconclusive means other falling curves, or compound fluorescence or quenching; inactive means flat or rising ratio curve;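 note: potency is the fitted concentration of half-maximal effect; % of control where 0% means no effect; nearly all actives have a fitted effect of over 45% in size; -100% = wells without RanGTP and RCC1; the record marks most hits as doubtful in a second field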
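Recombinant Rango FRET biosensor (EYFP–snurportin 1 IBB–cerulean CFP10) at 0.1 uM premixed with 0.25 uM importin beta in PBS, 1 mM DTT, 0.02% Tween-20, 0.1% BSA. Compound added 5 min; RanGTP-RCC1 (0.6 uM Ran, 2 mM GTP, 0.2 uM RCC1) then triggers release, read at 45 min.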
Active calls of the source: *; ? = inconclusive; nt = not tested or not shown; & = joins results of further samples. This is a subset (hit frequency here may not be typical).

SMILES	miR-21 FLuc	GLA inh pH 4.5	Rango-impB inh	Rango release inh
COc1ccc(C(C)=O)cc1CN1C(=O)NC2(CCCCC2)C1=O	0%	0	-0.1%	2%
Cc1nn(-c2ccccc2)c(C)c1/C=C1\C(=O)N(C)C(=S)N1C	5%	-4	-1.8%	-11%
Cc1ccccc1NC(=O)c1ccc(CN2CC(=O)N3CCCCC3C2=O)cc1 (stereo not given)	0%	nt	-3.5%	-7%
C=CCc1cccc(OC)c1OCCOCCNCCO	-6%	-6	-1.0%	-6%
Brc1ccc(N=Nc2ccc3ccccc3n2)cc1	-35%	-4	?	-11%
COc1ccc(C)cc1NC(=O)COC(=O)CCC(=O)c1cccs1	nt	nt	-1.9%	-8%
CCc1ccc(N(CC(=O)Nc2ccc(OC)cc2OC)S(C)(=O)=O)cc1	-30%	-8	0.1%	-4%
CCOC(=O)c1ccc(NC(=O)NNC(=O)CCc2ccc(OC)cc2)cc1	0%	nt	0.6%	2%
O=C(COC(=O)c1ccc(S(=O)(=O)NCc2ccco2)cc1)NCc1ccc(F)cc1	nt	nt	-2.7%	3%
C/C(=N\Nc1cc(C)nc(-c2ccccc2O)n1)c1ccccc1	-14%	10	0.7%	-1%
COc1ccc(-c2cc(C(=O)N(C)Cc3cccc(OC)c3OC)c3ccccc3n2)cc1OC	3%	nt	-0.7%	0%
CC(C)(C)NC(=O)c1ccc(NC(=O)c2ccccc2-c2ccccc2C(=O)O)cc1	-9%	nt	3.0%	0%
CC(C)CCc1noc(CN(CC2CCC2)CC2CCCO2)n1 (stereo not given)	-3%	-2	0.3%	-1%
COc1cc(OC)nc(S(C)(=O)=O)n1	-2%	2	1.7%	-7%
CCOC(=O)c1cc(S(=O)(=O)Nc2ccc(F)cc2F)cn1C	-7%	nt	1.0%	-7%
COC(=O)COc1c(Cl)cc(C(c2c(C)[nH][nH]c2=O)c2c(C)[nH][nH]c2=O)cc1OC	3%	nt	-0.2%	-13%
COc1ccc(NC(=O)CSc2ccccc2)cc1S(=O)(=O)N1CCOCC1	-8%	nt	-1.0%	10%
O=[N+]([O-])c1ccc(N/N=C/c2sc(N3CCOCC3)nc2-c2ccccc2)c(S(=O)(=O)Nc2ccccc2Cl)c1	22%	3	?	?
CC1(C(=O)OCC(=O)Nc2ccccc2)CC1(Cl)Cl (stereo not given)	-39%	2	-2.7%	21%
CCOC(=O)COc1c(Br)cc(/C=C2\SC(=O)N(CC(=O)N3CCCC3)C2=O)cc1OC	-2%	-7	3.9%	8%
N#CC1=C2SCN(Cc3ccco3)CN2C(=O)CC1c1cccc2ccccc12 (stereo not given)	-3%	-4	-3.9%	0%
COc1ccc(Cl)cc1NC(=S)NCCc1ccc(S(N)(=O)=O)cc1	12%	-3	0.1%	1%
CC(Nc1cc(C)cc(C)c1)=[N+](C)CCNS(=O)(=O)c1ccc(Cl)cc1	-3%	nt	4.0%	3%
Cc1nn(C(=O)CCC(=O)NCCc2ccccc2)c2ccccc12	-5%	nt	5.6%	0%
Cc1c(C(=O)OCC(=O)NCC2CCCO2)cccc1[N+](=O)[O-] (stereo not given)	-2%	-27	-0.8%	-4%
Cc1ccccc1-n1c(SCc2c(C)noc2C)nnc1-c1cccnc1	-6%	-8	?	-25%
COc1ccc(CCNC(=O)C2CCN(Cc3nc(-c4ccc(Cl)cc4)oc3C)CC2)cc1OC	nt	nt	0.6%	1%
COc1ccccc1NC(=O)CCc1nnc2ccc(N3CCCCC3)nn12	-4%	nt	-1.3%	-11%
CCCN(CC(=O)Nc1ccccc1C)C(=O)CCCOc1ccc(Br)cc1	nt	nt	0.1%	-5%
Cc1ccc(-n2[nH]c(C)c(/C=N/c3cccc(C)n3)c2=O)cc1	-8%	1	-1.3%	-9%
Nc1ncnc2c1ncn2[C@@H]1O[C@H](CO)[C@@H](O)[C@H]1O	-4%	4&-7	-0.5%	0%
O=C(Nc1nnc(-c2cccs2)o1)c1ccc(S(=O)(=O)N2CCOCC2)cc1	27%	2	-0.2%	29%
CC(=O)C1C(c2ccc(Cl)cc2)c2c(n[nH]c2C)CC1(C)O (stereo not given)	0%	3	?	-16%
O=C(CCCC(=O)NC1CCCCC1)Nc1ccc([N+](=O)[O-])cc1	1%	nt	0.8%	7%
O=C(Nc1nc(-c2ccccc2)cs1)C1CCCCN1S(=O)(=O)c1ccccc1 (stereo not given)	27%	-8	-2.4%	-2%
COCCNC(=O)Cn1cnc2c(cnn2-c2ccc(OC)cc2)c1=O	-3%	nt	0.9%	-18%
CCN(CC)CCCn1c2c(c(SCC(=O)Nc3cccc(C)c3C)nc1=O)CCC2	nt	nt	-0.1%	14%
Cc1ccc2c(c1)N(CC(=O)O)C(=O)CO2	3%	9	-1.1%	-13%
CC(/C=C/c1ccccc1)=N\Nc1nc2c(c(=O)[nH]c(=O)n2C)n1CCO	-2%	-13	-3.5%	12%
Oc1cc2c(cc1C(c1ccc(Cl)c(Cl)c1)N1CCCC1)OCO2 (stereo not given)	-12%	5	0.4%	1%

By substructure: the compounds so far with fluorine.
SMILES	miR-21 FLuc	GLA inh pH 4.5	Rango-impB inh	Rango release inh
O=C(COC(=O)c1ccc(S(=O)(=O)NCc2ccco2)cc1)NCc1ccc(F)cc1	nt	nt	-2.7%	3%
CCOC(=O)c1cc(S(=O)(=O)Nc2ccc(F)cc2F)cn1C	-7%	nt	1.0%	-7%

The listing continues.
SMILES	miR-21 FLuc	GLA inh pH 4.5	Rango-impB inh	Rango release inh
O=C(NCC1CCCO1)c1cc2ccccc2cc1O (stereo not given)	nt	nt	?	?
O=C(O)c1ccc(OC2CSC2)cc1	-1%	5	-3.0%	-10%
NCCCCCc1cn([C@@H](CO)C(=O)NCCCCCCCCCCC(=O)N2CCNCC2)nn1	nt	nt	0.7%	10%
COc1cc(/C(C)=N/NC(=O)c2ccc(CSc3nncn3C)cc2)cc(OC)c1OC	-2%	1	-3.1%	3%
COc1cc(NC(=O)CSc2nnnn2-c2ccccc2)cc(OC)c1OC	-2%	7	1.5%	?
O=c1c2ccccc2n2c(-c3cccc(Cl)c3)nnc2n1Cc1ccccc1	-1%	7	-0.3%	15%
Oc1cccc(C2c3[nH]c4ccccc4c3CCN2Cc2ccc3c(c2)CCO3)c1 (stereo not given)	23%	6	?	?
CCN(CC(=O)NCC1CCCO1)S(=O)(=O)c1ccc2ccccc2c1 (stereo not given)	2%	nt	1.1%	-5%
COc1c(S(=O)(=O)N2CCN(C(=O)c3ccco3)CC2)ccc(Cl)c1Cl	-12%	nt	-1.1%	30%
Cc1ccc(/C(O)=C2\C(=O)C(=O)N(c3cc(C)on3)C2c2cccc(Cl)c2)cc1 (stereo not given)	-7%	4	0.2%	-16%
CCOC(=O)CNC(=O)CSc1nc2cccnc2n1CC	-1%	-5	0.0%	-6%
Fc1cccc(NC(=S)NCCN2CCOCC2)c1	-5%	2	3.0%	-7%
Cc1ccccc1NC(=O)Cc1nc(COC(=O)CNS(=O)(=O)c2cccc(Br)c2)cs1	3%	nt	1.0%	-12%
O=C(CNC(=O)c1ccco1)OCC(=O)c1ccc(Br)cc1	1%	nt	5.4%	-9%
COC(=O)CCC(=O)OC1(C)C(=O)C2=CN(CCc3ccccn3)C(c3ccc(OC)cc3)=CC2=C(Br)C1=O (stereo not given)	nt	0	?	?
COc1ccc(NC(=O)CN2CCC(n3c(C)nc4cc(F)ccc43)CC2)c(OC)c1	-18%	-1	3.4%	3%
C=CCN1C=C2C(=O)C(C)(OC(=O)c3cnc4ccccc4n3)C(=O)C=C2C=C1/C=C/COC (stereo not given)	nt	-5	-5.9%	?
O=C(CSC1=Nc2ccccc2C2=NC(c3ccccc3)C(=O)N12)NCC1CCCO1 (stereo not given)	0%	1	2.1%	-12%
O=C(CC1NCCNC1=O)OCc1ccccc1 (stereo not given)	-7%	-2	-2.0%	-14%
COc1cc(C(=O)NCCc2cn3ccccc3n2)cc(OC)c1OC	-1%	-1	0.6%	12%

Five compounds out of the list above, sorted by their value in Rango-impB inh, rising:
SMILES	Rango-impB inh
Cc1c(C(=O)OCC(=O)NCC2CCCO2)cccc1[N+](=O)[O-] (stereo not given)	-0.8%
CCc1ccc(N(CC(=O)Nc2ccc(OC)cc2OC)S(C)(=O)=O)cc1	0.1%
COc1ccc(CCNC(=O)C2CCN(Cc3nc(-c4ccc(Cl)cc4)oc3C)CC2)cc1OC	0.6%
NCCCCCc1cn([C@@H](CO)C(=O)NCCCCCCCCCCC(=O)N2CCNCC2)nn1	0.7%
COCCNC(=O)Cn1cnc2c(cnn2-c2ccc(OC)cc2)c1=O	0.9%

(list continues)
SMILES	miR-21 FLuc	GLA inh pH 4.5	Rango-impB inh	Rango release inh
CC(=O)c1ccc(S(=O)(=O)NCc2ccc(C(=O)N(C)CC(=O)Nc3cccc(F)c3)cc2)cc1	9%	nt	-5.9%	0%
CC(=O)NC1C(=O)N=C(SCC(=O)Nc2c(C)cccc2C)NC1=O (stereo not given)	2%	9	2.9%	9%
CNC(=S)NNC(=O)Cc1ccc(OC)cc1	2%	1	-0.4%	-10%
Cc1[nH]c(C)c(S(=O)(=O)N2c3ccccc3CC2C)c1C(=O)N1CCCCC1 (stereo not given)	2%	nt	0.8%	-8%
CCn1c(SCC(=O)c2ccc(Cl)cc2)nnc1-c1ccoc1C	-1%	2	0.0%	-14%
Cn1ncc([N+](=O)[O-])c1C(=O)Nc1ccn(Cc2ccccc2F)n1	3%	3	-0.8%	-2%
Cc1cc(C)c2c(=O)[nH]c(SCC(=O)N(C)C)nc2n1	1%	-27	-1.0%	6%
CCCCNC(=O)NCC(=O)Nc1ccc(F)c(F)c1	-6%	-6	3.0%	-1%
CCn1c(=O)c(=O)[nH]c2cc(C(=O)NC3CC3)ccc21	3%	0	-0.7%	0%
O=C(CCN1CCN(C(c2ccccc2)c2ccccc2)CC1)N/N=C/c1ccc(O)cc1	-4%	1	-4.0%	1%
O=S(=O)(Nc1ccccc1N1CCOCC1)c1ccccc1C(F)(F)F	nt	nt	-2.1%	16%
Nc1ccc(Oc2ccc3c(c2)OCO3)cc1	1%	0	3.3%	24%
Cc1ccccc1NC(=O)CN1CCC(n2nnc3ccccc32)CC1	-5%	-3	-0.9%	-12%
O=C(NCCOc1ccccc1)c1cc([N+](=O)[O-])ccc1N1CCOCC1	nt	nt	0.0%	-2%
COCCCn1c(C(=O)NCCC2=CCCCC2)cc2c(=O)n3cccc(C)c3nc21	-1%	nt	?	0%
COc1ccccc1N1CCN(C(=O)c2cccc(N3C(=O)NC4CC3(C)Oc3c(OC)cccc34)c2)CC1 (stereo not given)	9%	nt	3.8%	1%
COC(=O)c1ccc(N2C(=O)C3C4C=CC(CC4)C3C2=O)cc1 (stereo not given)	-11%	nt	7.3%	0%
CCCSC1=C(C#N)C(c2cccs2)C(C(=O)Nc2ccccc2)=C(C)N1 (stereo not given)	12%	-6	-1.6%	18%
CNC(=S)N(Cc1ccc(OC)cc1)C1CC(=O)N(c2ccc(OC)cc2)C1=O (stereo not given)	-4%	-14	0.3%	16%
COC(=O)c1cc(C(=O)OC)cc(N2C(=O)CC(NNC(=O)c3ccc(C)cc3)C2=O)c1 (stereo not given)	8%	15	-1.9%	1%
Cc1[nH]c2c(C)cccc2c1CCNC(=O)c1ccc2c(c1[N+](=O)[O-])C(=O)c1ccccc1C2=O	14%	-16	-1.4%	1%
O=C(c1ccc(Cl)c(S(=O)(=O)N2CCCCCC2)c1)N1CCCC1	-17%	2	-0.7%	1%
O=c1c2cccnc2[nH]c(=S)n1CCC1=CCCCC1	-7%	7	1.7%	2%
COc1ccc(C(=O)NC(C)c2ccc(-n3ccnc3)cc2)cc1S(=O)(=O)N1CCOCC1 (stereo not given)	nt	nt	0.9%	-4%
COc1ccc(N2C(=O)NC(=O)C2=O)cc1	6%	nt	-3.1%	8%
Cc1nc(-c2ccc(C(=O)Nc3cc(S(N)(=O)=O)ccc3C)cc2)cs1	-25%	nt	-0.7%	1%
CC(=O)Nc1sc2c(c1C(c1ccccn1)N1CCN(C)CC1)CCCC2 (stereo not given)	-5%	-4	-0.6%	5%

Screens deposited in PubChem by National Center for Advancing Translational Sciences (NCATS).
